# High-throughput results as filed in PubChem BioAssay.
# Rango release inh: qHTS Assay for Inhibitors of RanGTP induced Rango (Ran-regulated importin-beta cargo) - Importin beta complex dissociation; Biochemical FRET Rango-importin beta, RanGTP-induced dissociation; Snurportin-1 (Homo sapiens) + GTP-binding nuclear protein Ran (Homo sapiens) + Importin …; actives 0.071% (n = 340,000); Potency, µM (titrated, usually from 46.1 µM), without a hit: at the highest dose activity change, negative = inhibition; active means falling FRET ratio curve, often poorly fitted, with flat reads before Ran was added; inconclusive means other falling curves, or compound fluorescence or quenching; inactive means flat or rising ratio curve;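 further: potency means the concentration at half of the fitted maximal effect; % of control where 0% means no effect; nearly all actives have a fitted effect of over 45% in size; -100% = wells without RanGTP and RCC1; the record marks most hits as doubtful in a second field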
#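 Two FRET readings bracket the reaction: one 5 min after compound meets Rango–importin beta, another 45 min after RanGTP-RCC1 (0.6 uM Ran, 0.2 uM RCC1, 2 mM GTP) is added. Only the second defines inhibition.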
# miR-21 FLuc: qHTS Assay for Modulators of miRNAs and/orActivators of miR-21; HeLa miR-21 FLuc reporter, luciferase, 48 h; Potency, µM (doses to about 38.3 µM), inactives show at the highest dose reporter change, positive = more light; 340,000 tested, under 10 active; active = well fitted rising curve with a large enough effect; inconclusive = small, poorly fitted or top-dose-only effect; inactive = no such curve, though single readings can be large or run the other way;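 further: % of control where 0% means no effect; miR-21 action dims this reporter so a rising signal means less miR-21 action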
#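 Compounds were titrated across several concentrations (up to approximately 40 uM) and incubated 48 hours with HeLa miR-21-FLuc reporter cells (miR-21 target sequence downstream of FLuc, endogenous miR-21). Readout was firefly luciferase luminescence after lytic detection reagent.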
# GLA inh pH 4.5: qHTS Assay for Inhibitors of Human alpha-Galactosidase at pH 4.5 | Alpha-galactosidase A (Homo sapiens), P06280 | purified enzyme, 4-MU-alpha-Gal fluorescence, pH 4.5 | activity change, negative = inhibition, % at 105 µM | 230,000 tested, under 10 active | AID 1467, 2008; inconclusive = small, poorly fitted or top-dose-only inhibition, or a rising curve; inactive = flat fitted curve, though single readings scatter; no compound was filed as active;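 further: 0% = full activity with enzyme and -100% = basal without enzyme; dose as in the result columns while the protocol names 77 µM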
# Rango complex inh: qHTS Assay for Inhibitors of Rango (Ran-regulated importin-beta cargo) - Importin beta complex formation | Importin subunit beta-1 (Homo sapiens), Q14974 | Rango CFP/YFP FRET sensor + importin beta, 45 min | Potency, µM (titrated, usually from 92.2 µM), for inactives: at the top dose inhibition of complex formation | actives 0.031% (n = 340,000) | AID 540263, 2011; active = rising FRET ratio curve, often small or poorly fitted; inconclusive = mostly compound fluorescence or quenching in the first reads; inactive = flat curves in all reads;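 further: potency means the concentration at half of the fitted maximal effect; 0% = DMSO wells and 100% = buffer wells lacking importin beta; nearly all actives have a fitted effect of over 15% in size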
# Target sequence (Q14974 whole entry, looked up): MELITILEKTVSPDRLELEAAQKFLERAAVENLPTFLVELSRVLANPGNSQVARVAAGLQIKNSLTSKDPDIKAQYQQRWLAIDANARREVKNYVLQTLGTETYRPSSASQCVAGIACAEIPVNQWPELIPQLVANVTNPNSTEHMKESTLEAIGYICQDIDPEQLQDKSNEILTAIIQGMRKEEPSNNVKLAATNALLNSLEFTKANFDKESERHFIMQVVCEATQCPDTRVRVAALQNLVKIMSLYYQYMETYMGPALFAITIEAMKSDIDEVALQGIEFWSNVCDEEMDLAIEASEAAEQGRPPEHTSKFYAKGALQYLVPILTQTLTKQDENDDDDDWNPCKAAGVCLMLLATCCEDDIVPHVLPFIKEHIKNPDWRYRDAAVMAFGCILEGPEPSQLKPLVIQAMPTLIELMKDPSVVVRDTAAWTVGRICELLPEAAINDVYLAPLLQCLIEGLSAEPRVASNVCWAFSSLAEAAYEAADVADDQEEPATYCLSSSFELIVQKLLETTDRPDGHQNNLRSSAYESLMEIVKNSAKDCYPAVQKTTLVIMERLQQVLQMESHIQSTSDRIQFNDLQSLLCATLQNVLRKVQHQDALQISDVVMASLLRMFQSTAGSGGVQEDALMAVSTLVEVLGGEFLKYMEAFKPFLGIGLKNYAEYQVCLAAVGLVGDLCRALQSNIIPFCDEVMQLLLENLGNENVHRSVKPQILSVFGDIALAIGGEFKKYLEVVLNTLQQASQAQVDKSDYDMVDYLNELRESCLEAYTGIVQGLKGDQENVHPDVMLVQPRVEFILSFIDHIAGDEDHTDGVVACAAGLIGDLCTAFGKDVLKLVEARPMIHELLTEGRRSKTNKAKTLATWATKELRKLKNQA
#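 FRET biosensor (snurportin 1 IBB flanked by EYFP and cerulean), 50 nM, with compound 5 min, then 0.125 microM importin beta in PBS, 1 mM DTT, 0.02% Tween-20, 0.1% BSA. CFP/YFP ratio read after 45 min at room temperature; pre-read flags interference.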
# * marks the source's active call; other numbers are inactive results; ? = inconclusive; . = no result given; & = joins results of further samples.
# Letter code – A = Rango release inh; B = miR-21 FLuc; C = GLA inh pH 4.5; D = Rango complex inh
Cc1ccc(NS(=O)(=O)c2cccc(C(=O)N3CCOCC3)c2)cc1
  A: 5.0%; B: -0.1%; C: 2.8; D: 0.5%
Cc1cc(-n2c(C)cc(C(=O)CSc3nncn3C)c2C)no1
  A: 7.6%; B: .; C: .; D: 3.7%
COc1ccccc1N/C(N)=N/c1nc(C(F)(F)F)cc(=O)[nH]1
  A: -4.5%; B: -0.1%; C: 3.7; D: -0.6%
CCO[C@@H]1OC(C(=O)Nc2ccccc2)=C[C@H](c2ccccc2)[C@H]1CCCO
  A: -1.5%; B: -3.7%; C: 2.3; D: 0.9%
CCOC(=O)/C=C1\SCC(=O)N1CC(=O)NCc1cccc(Cl)c1
  A: -0.9%; B: -6.3%; C: -6.2; D: -1.5%
O=C(Oc1ccccc1N1CCOCC1)c1ccccc1
  A: 0.7%; B: -1.9%; C: -3.0; D: -0.6%
CC(=O)Nc1ccc(C(=O)NC2CCSc3ccccc32)cc1 (centres undefined)
  A: -5.9%; B: -16.6%; C: .; D: -1.5%
Cn1c(=O)c2ncn(CC(=O)NCCOCc3ccccc3Cl)c2n(C)c1=O
  A: 7.2%; B: -1.8%; C: -8.7; D: -5.0%
CCOC(=O)c1c(C)[nH]c(C)c1S(=O)(=O)N(C)CC(=O)Nc1cccc(F)c1
  A: 16.0%; B: -1.8%; C: .; D: 4.2%
COC(=O)C(CC(=O)c1ccc(C)cc1)n1cccn1 (centres undefined)
  A: -6.3%; B: 0.3%; C: .; D: -1.0%
Cc1c(C(C)(C(=O)O)c2c(C)n(C)c3ccccc23)c2ccccc2n1C
  A: .; B: -5.7%; C: 2.1; D: .
COc1ccc(/C(O)=C(\C#N)c2nc3ccccc3n2C)cc1OC
  A: 0.0%; B: -46.9%; C: -2.8; D: -6.3%
CCN(CC(=O)Nc1c(F)cccc1F)C(=O)c1ccc(S(=O)(=O)N2CCCCC2)cc1
  A: -2.5%; B: .; C: .; D: -0.6%
CCOc1ccc(CNC2CCCCCCC2)cc1OC
  A: 13.5%; B: -2.1%; C: .; D: -0.7%
Cc1ccc(OCc2nn3c(-c4n[nH]c5c4CCC5)nnc3s2)cc1
  A: .; B: -2.3%; C: 2.9; D: .
O=C(NCCSc1c[nH]c2ccccc12)c1ccc(Br)o1
  A: ?; B: -9.6%; C: 0.2; D: 1.0%
CN(CC(=O)NNC(=O)CCNS(=O)(=O)c1ccccc1)S(=O)(=O)c1ccc(Cl)cc1
  A: 0.1%; B: .; C: .; D: 0.4%
O=C(C1CCCN(CCCc2ccccc2)C1)N1CCCCCC1 (centres undefined)
  A: 2.5%; B: -2.5%; C: -6.5; D: -0.1%
CCOCCCNC(=O)C(NC(=O)c1ccc(NC(C)=O)cc1)c1ccc(C)cc1 (centres undefined)
  A: 1.6%; B: -4.0%; C: -1.4; D: -0.1%
NC(=O)c1ccc(NC(=O)COC(=O)C2CC3C=CC2C3)cc1 (centres undefined)
  A: -1.5%; B: .; C: .; D: 3.5%
COc1ccc(CNC(=O)C(C)Cc2ccccc2)cc1O (centres undefined)
  A: 25.6%; B: -2.7%; C: -24.6&4.3; D: 4.4%
CC1(C)C=Cc2c(c3c(c4c(=O)c(-c5ccc(O)cc5)coc24)OC(C)(C)CC3)O1
  A: 2.7%; B: -6.4%; C: .; D: 1.0%
COC(=O)[C@H](CCSC)NC(=O)Cn1cnc2c(SC)nc(N)nc21
  A: 3.4%; B: .; C: .; D: -0.1%
Cc1ccc(-c2csc3nc4ccc(C(=O)NCCO)cc4c(=O)n23)cc1
  A: -17.6%; B: 7.8%; C: 16.3; D: -1.0%
CC(=O)Nc1cccc(NC(=O)CCn2c(=O)sc3ccccc32)c1
  A: -11.2%; B: -3.6%; C: 2.8; D: 0.3%

# Continuation:
# Letter code – A = Rango release inh; B = miR-21 FLuc; C = GLA inh pH 4.5; D = Rango complex inh
Cc1ccc(S(=O)(=O)N2CCC(C(=O)N3CCC(C(=O)NCC4CCCO4)CC3)CC2)cc1 (centres undefined)
  A: 2.3%; B: -6.8%; C: 2.4; D: -0.1%
CCc1ccc(CCC(=O)Nc2nc(CC(C)=O)ns2)o1
  A: ?; B: -0.7%; C: 6.3; D: ?
OC[C@@H]1[C@@H](c2ccccc2)C(c2ccccc2)=NN1c1ccccc1
  A: ?; B: .; C: ?; D: ?
Cc1ccc(-c2nnc(COC(=O)c3cc(=O)[nH]c4ccccc34)o2)cc1
  A: -0.4%; B: -2.6%; C: .; D: 1.9%
CCc1cc(C(=O)N(C)CC(=O)Nc2c(Cl)cccc2Cl)sc1C
  A: 0.1%; B: .; C: .; D: -1.6%
N#Cc1cnn(-c2cccc(Cl)c2)c1N
  A: -5.5%; B: -1.1%; C: 5.1; D: ?
Cc1ccccc1OCC(=O)OCC(=O)Nc1ncc(Cl)c(C)c1Cl
  A: 6.0%; B: .; C: .; D: 2.4%
Cc1cccc(-n2c(Cc3cc(=O)[nH]c(=O)[nH]3)nnc2SCC(=O)NCc2ccco2)c1
  A: -18.0%; B: .; C: .; D: -0.2%
Cc1ccc(OCc2cc(C(=O)N3CCCC(O)C3)no2)cn1 (centres undefined)
  A: -9.2%; B: -17.3%; C: .; D: -1.2%

# Three successive entries already listed, quoted:
# Letter code – A = Rango release inh; B = miR-21 FLuc; C = GLA inh pH 4.5; D = Rango complex inh
CCc1ccc(CCC(=O)Nc2nc(CC(C)=O)ns2)o1
  A: ?; B: -0.7%; C: 6.3; D: ?
OC[C@@H]1[C@@H](c2ccccc2)C(c2ccccc2)=NN1c1ccccc1
  A: ?; B: .; C: ?; D: ?
Cc1ccc(-c2nnc(COC(=O)c3cc(=O)[nH]c4ccccc34)o2)cc1
  A: -0.4%; B: -2.6%; C: .; D: 1.9%

# Single records, from the list above:
# Cc1ccc(S(=O)(=O)N2CCC(C(=O)N3CCC(C(=O)NCC4CCCO4)CC3)CC2)cc1 (centres undefined) is listed as Rango release inh = 2.3%; miR-21 FLuc = -6.8%; GLA inh pH 4.5 = 2.4; Rango complex inh = -0.1%
# Cc1ccccc1OCC(=O)OCC(=O)Nc1ncc(Cl)c(C)c1Cl is listed as Rango release inh = 6.0%; miR-21 FLuc = .; GLA inh pH 4.5 = .; Rango complex inh = 2.4%

# These rows are one share of the data. The share of hits here may be higher or lower than overall.
